Screening data: PubChem BioAssay, National Center for Advancing Translational Sciences (NCATS)
Lassa entry = Lassa virus entry inhibition; Lassa virus pseudotyped entry inhibition, cell-based qHTS; control for the full effect not named in the record; many of its hits are not listed in these tables; Potency, µM (series often up to 49.2 µM), without a hit: at the top dose activity change, negative = inhibition, hits mostly inhibitors; 18,000 tested, 4.1% active; AID 720533; active = well fitted inhibition curve with a large enough effect; inconclusive = small, poorly fitted or top-dose-only effect; inactive = no such curve, though single readings can be large or run the other way; tested in HEK293 cells; further: luciferase read-out
Marburg entry = inhibitors of Marburg virus binding or entry into cells. AID 720532. Potency, µM (top dose mostly 49.2 µM), inactives show at the highest dose activity change, negative = inhibition, hits mostly inhibitors. Marburg virus pseudotype entry/binding inhibition, cell-based; control for the full effect not named in the record; many of its hits are not listed in these tables. 18,000 tested, 6.5% active; active means well fitted inhibition curve with a large enough effect; inconclusive means small, poorly fitted or top-dose-only effect; inactive means no such curve, though single readings can be large or run the other way; tested in HEK293 cells; further: luciferase read-out
* marks the source's active call; other numbers are inactive results; ? = inconclusive; / = not tested or not shown; & = joins results of further samples; [ ] = dose if it differs, or a comment. On the % scale 0 is the no-effect control and ±100 the full control effect; potency means the concentration at half of the fitted maximal effect.

SMILES | Lassa entry | Marburg entry
O=C(OC[C@H]1O[C@](O)(COC(=O)c2cccnc2)[C@@H](OC(=O)c2cccnc2)[C@@H]1OC(=O)c1cccnc1)c1cccnc1 | -8% | 3%
Cc1ccc2c(c1)C(=O)[C@]1(O)CCN(c3ccccc3)C1=N2 | 1% | 12%
COC(=O)CCc1ccc(OCC(O)CNC(C)C)cc1 (stereo unspecified) | -11% | 12%
CCCCCCCCCCCC[N+](C)(C)CCOc1ccccc1 | ? | ?
COc1ccc(Cl)cc1N=Nc1ncc[nH]1 | 4%&6% | -8%&10%
Cc1ccc2c(c1)CN(CCC(=O)NCc1cc(C)n(C)n1)CC(C)O2 (stereo unspecified) | -1% | 5%
O=C(C=Cc1ccccc1)Nc1cccc(C(=O)NCCc2ccccc2)c1 | -13% | 8%
CS(=O)(=O)CCN(CC#N)Cc1ccc(-c2ccc3ncnc(Nc4ccc(OCc5cccc(F)c5)c(Cl)c4)c3c2)o1 | 21% | -10%
O=C1C(I)=CC(=C(c2cc(I)c(O)c(I)c2)c2ccccc2C(=O)O)C=C1I | ? | ?
COc1cc2ncnc(Nc3ccc(Cl)cc3F)c2cc1OC | 0% | -4%
COC(=O)N[C@@H](CCc1ccccc1)[C@]1(C(C)=O)CCCC1=O | -4% | 4%
C#Cc1cccc(Nc2ncnc3cc(OC)c(OC)cc23)c1 | -15% | 8%
COc1ccc([C@H]2C[C@@H](n3cc(COC(=O)c4ccccc4)nn3)[C@H](O)CN2Cc2cccs2)cc1 | / | -23%
COC(=O)[C@H](COC(C)(C)C)NC(=O)O[C@@H]1C(=O)c2cc(OC)ccc2O[C@H]1c1cccc(OC)c1 | 14% | 35%[activator]
C=C(C)C1CC=C(CO)CC1 (stereo unspecified) | -12% | 6%
CC(=O)C1=CN(CCc2c[nH]c3ccccc23)C(=O)NC1c1ccccc1 (stereo unspecified) | -21%[8.59 µM] | 3%[8.59 µM]
O=c1oc2cc(O)ccc2cc1-c1ccc2c(c1)OCCO2 | -11% | 0%
COc1ccccc1N1CCN(CCN2C(=O)CC3(CCCC3)CC2=O)CC1 | -3%&-13% | 3%&8%
CCN1C(=O)[C@@H]2[C@H]3[C@H](O)[C@H](O)CC(=NO[C@H](C)c4cn([C@H](CO)Cc5ccccc5)nn4)[C@@H]3CC[C@H]2C1=O | / | -11%[8.59 µM]
COC(=O)C1(C(=O)OC)C/C=C\C/C=C\c2ccccc2[C@@H]1C[N+](=O)[O-] | 5%&-11% | 4%&3%
COCCOC(=O)C1=C(C)NC(C)=C(C(=O)OC(C)C)[C@@H]1c1cccc([N+](=O)[O-])c1 | -23% | -26%
COc1ccc(CN2CCOc3ccc(CN4CCN(CCO)CC4)cc3C2)c2ccccc12 | ? | 11µM*
COC(=O)C1CCCCN1Cc1ccc2c(c1)CN(C(=O)c1csc(-c3cccs3)n1)CCO2 (stereo unspecified) | -11% | ?
CCN1C(=NCc2ccccc2)N[C@@H](CCc2ccccc2)[C@H](C(=O)OC)[C@H]1C | -7%[8.59 µM] | -18%[8.59 µM]
Oc1ccc2c3c1O[C@H]1c4[nH]c5c(c4C[C@@]4(O)[C@@H](C2)N(CC2CC2)CC[C@]314)C[C@]1(O)[C@H]2Cc3ccc(O)c4c3[C@@]1(CCN2CC1CC1)[C@@H]5O4 | -10% | 3%
CCCC(=O)OC[C@H]1CN(C2CCCC2)S(=O)(=O)c2c(F)cccc2O1 | 10% | 22%
S=C(NC1CCCCC1)N1CCC([C@H]2C=NC=N2)CC1 | 7%[17.8 µM] | -15%[17.8 µM]
COc1ccc(CC(=O)c2ccc(O)cc2O)cc1 | 45%[activator] | 82%[activator]
CC1(OC(=O)CCc2ccccc2)C(=O)C=C2C=C(c3ccc(C#N)cc3)OC=C2C1=O (stereo unspecified) | -30% | 24%
COC[C@@H](OC(C)=O)[C@H]1OCc2ccccc2[C@@H]1C=Cc1ccccc1 | 11%[8.59 µM] | 14%[8.59 µM]
CNC(C)CC1CCCCC1 (stereo unspecified) | -20% | -7%
COC(=O)C1=C(C(=O)OC)[C@@H]2N(C)c3ccc(OC)cc3[C@@]23C[C@@H](C(=O)OC)N(C(=O)NC(C)(C)C)C3=N1 | / | ?
CNC(=O)Oc1ccccc1C(=O)Nc1ccccc1 | -12% | 22%
COc1cc2c(cc1OC)-c1cc3cc(OC)c(OC)cc3c(=O)n1CC2 | ? | ?
COc1ccc([C@@H]2[C@@H](O)[C@H](O)[C@@H](C)N2C)cc1OC | -11% | 4%
CC(=O)OC1CCC2(C)C(=CC=C3C2CCC2(C)C3CCC2C(C)/C=C/C(C)C(C)C)C1(C)C (stereo unspecified) | -15% | 22%
COc1ccc(N2C=C3C(=O)C(C)(OC(=O)C4CCCC4)C(=O)C=C3C=C2c2ccsc2)cc1 (stereo unspecified) | 8%[8.59 µM] | 38%[activator][8.59 µM]
COc1cccc(CN2CCC3(CCC(CNC(=O)c4cc(C)nn4C)O3)CC2)c1OC (stereo unspecified) | -18% | ?
c1cncc([C@@H]2CCCCN2)c1 | -13% | 2%
Nc1nc(Cl)c2ncn(C3OC(CO)C(O)C3O)c2n1 (stereo unspecified) | 5% | 19%

Part of the list above, with tabs:
Compound	Lassa entry	Marburg entry
Nc1nc(Cl)c2ncn(C3OC(CO)C(O)C3O)c2n1 (stereo unspecified)	5%	19%
COc1cc2c(cc1OC)-c1cc3cc(OC)c(OC)cc3c(=O)n1CC2	?	?

Arranged by molecular weight (ascending): seven of the compounds above
SMILES | Lassa entry | Marburg entry
CNC(C)CC1CCCCC1 (stereo unspecified) | -20% | -7%
COc1ccc([C@@H]2[C@@H](O)[C@H](O)[C@@H](C)N2C)cc1OC | -11% | 4%
COc1cc2c(cc1OC)-c1cc3cc(OC)c(OC)cc3c(=O)n1CC2 | ? | ?
COc1cccc(CN2CCC3(CCC(CNC(=O)c4cc(C)nn4C)O3)CC2)c1OC (stereo unspecified) | -18% | ?
CC(=O)OC1CCC2(C)C(=CC=C3C2CCC2(C)C3CCC2C(C)/C=C/C(C)C(C)C)C1(C)C (stereo unspecified) | -15% | 22%
COc1ccc(N2C=C3C(=O)C(C)(OC(=O)C4CCCC4)C(=O)C=C3C=C2c2ccsc2)cc1 (stereo unspecified) | 8%[8.59 µM] | 38%[activator][8.59 µM]
COC(=O)C1=C(C(=O)OC)[C@@H]2N(C)c3ccc(OC)cc3[C@@]23C[C@@H](C(=O)OC)N(C(=O)NC(C)(C)C)C3=N1 | / | ?

Next compounds follow.
SMILES | Lassa entry | Marburg entry
CC1(C)S[C@@H]2[C@H](NC(=O)COc3ccccc3)C(=O)N2[C@H]1C(=O)O (tested in a mixture with another compound) | -12%[17.8 µM] | -15%[17.8 µM]
CC(=O)OC[C@H]1O[C@H](CCON=C[C@@H](C)[C@H](OCc2ccccc2)C(C)C)C=C[C@@H]1OC(C)=O | -11%[8.59 µM] | -2%[8.59 µM]
CC(C)[C@@H](CC(=O)N[C@@H]1CCCC[C@H]1C(=O)N[C@H](CC(=O)N[C@@H](CCC(=O)O)CC(=O)O)Cc1c[nH]c2ccccc12)NC(=O)C[C@H](Cc1ccccc1)NC(=O)[C@@H]1CCCC[C@H]1N | -17% | 13%
CC(C)(C)Nc1oc(-c2ccccc2)nc1-c1cccc2ccccc12 | 6% | 45%[activator]
C[C@H]1O[C@@H](n2cnc3c(N)ncnc32)C[C@@H]1OP(=O)(O)OP(=O)(O)OP(=O)(O)O | 5% | 9%
COc1ccccc1CNc1ncncc1-c1ccoc1 | -3% | -5%
CCn1c(-c2ccccc2F)nc2cc(NC(C)=O)cc(C(=O)NC(c3ccccn3)C(F)(F)F)c21 (stereo unspecified) | ? | ?
C=CC1=C2C=C(C3CC3)N(c3ccc(OC)cc3)C=C2C(=O)C(C)(OC(=O)c2ccco2)C1=O (stereo unspecified) | 19%[8.59 µM] | -22%[8.59 µM]
O=C(O)c1c(C(=O)O)c2ccccc2[nH]c1=O | -7% | -13%
CCCCCC1=C(C(=O)OC)C(C(=O)OCC)N(S(=O)(=O)C(F)(F)F)c2ccccc21 (stereo unspecified) | ? | ?
CNC(=O)c1cc(-c2ccc(F)cc2)cc(-c2ccc(S(=O)(=O)N3CCCC3)cc2)c1N | ? | ?
Nc1ccc(/C=C/c2ccc(N)cc2S(=O)(=O)O)c(S(=O)(=O)O)c1 | -5% | 25µM*
CCCCCC(=O)N1C[C@H](O)[C@@H](n2cc(C3CC3)nn2)C[C@H]1c1ccc(OC)cc1 | 8% | 13%
CCC(C)c1cc([N+](=O)[O-])cc([N+](=O)[O-])c1OC(=O)OC(C)C (stereo unspecified) | 18µM* | ?
CCCCCCCC1=CC2=C(Cl)C(=O)C(C)(OC(C)=O)C(=O)C2=CO1 (stereo unspecified) | -7% | 13%
NOCc1ccccc1 | 4% | 7%
CCCCCCCC/C=C\C/C=C\C=C\C(O)CCCC(=O)O (stereo unspecified) | -13% | 1%
c1ccc2c(Nc3ccncc3)nc(-c3ccoc3)nc2c1 | 5% | ?
c1ccc(CN2CCN(Cc3ccc4c(c3)CN(Cc3c[nH]c5ccccc35)CCO4)CC2)nc1 | -8% | 10µM*
COc1ccc(OC)c([C@@H](O)[C@H](C)N)c1 | -16% | -27%
O=C(Cn1cc(COc2ccc(Br)cc2[N+](=O)[O-])nn1)c1ccc(O)cc1 | 11% | 19%
CN1CCc2cc(O)c(O)cc2C1Cc1ccc(O)c(O)c1 (stereo unspecified) | -7% | -16%
S=c1nc[nH]c2nc[nH]c12 | 14µM* | 13µM*
COc1ccc2[nH]c(-c3ccccc3)c(CCNC(C)=O)c2c1 | -11%&4% | 8%&2%
COc1ccc(C2c3[nH]c4ccccc4c3CC3C(=O)N(CCc4ccc(OC)c(OC)c4)CC(=O)N32)cc1 (stereo unspecified) | -18% | -25%
O=C(c1cccc(Cn2cccn2)c1)N1CCC(n2c(C3CCCO3)nc3cc(C(F)(F)F)ccc32)CC1 (stereo unspecified) | -5% | -26%
COc1ccc(OC)c(-c2cc(Cl)c3c(c2)CC(CNC(=O)c2cccnc2SC)O3)c1 (stereo unspecified) | ? | ?
CCCC(=O)OC1(C(=O)CO)CCC2C3CCC4=CC(=O)CCC4(C)C3C(O)CC21C (stereo unspecified) | -4% | -4%
CCCCOCC1CN(CCCC)S(=O)(=O)c2c(Oc3ccc(C)cc3)cccc2O1 (stereo unspecified) | / | ?
COC(=O)CC=C1c2ccccc2[C@@H](OC)[C@@H]1C | 38%&34%[activator][8.59 µM] | 16%&3%[8.59 µM]
COc1ccc(O[C@H]2C=C[C@@H](c3ccccc3)O[C@H]2COC(=O)CCC(C)=NOC[C@@H](O)COCc2ccco2)cc1 | / | 10%[8.59 µM]
Cc1cnc(SCc2ccccn2)nc1C1CCCN(C(=O)c2cc3ccccc3oc2=O)C1 (stereo unspecified) | -5% | -19%
COCOCCn1cc(CN2CCS(=O)(=O)N(Cc3ccc(-c4ccc(Cl)cc4)cc3)C(C(C)C)C2=O)nn1 (stereo unspecified) | -29% | -22%
C[C@@H]1CC[C@]2(C(=O)O)CC[C@]3(C)C(=CCC4[C@@]5(C)C[C@@H](O)[C@H](O)[C@@](C)(CO)C5[C@H](O)C[C@]43C)C2[C@H]1C (stereo partly specified) | 8% | 16%
CCC[C@@]1(CCc2ccccc2)CC(O)=C([C@H](CC)c2cccc(NS(=O)(=O)c3ccc(C(F)(F)F)cn3)c2)C(=O)O1 | -3% | -28%
C[C@H]1[C@@H]2Cc3ccc(O)cc3[C@@]1(C)CCN2C | -12%[231 µM] | ?
CC1(COc2ccc(C[C@H]3SC(=O)NC3=O)cc2)CCCCC1 | -13% | -9%
COc1ccc2c(c1)[C@@]1(OCCC=C[C@@H]1C)C(=O)N2CC=C(C)CCC=C(C)C | 23%[8.59 µM] | -10%[8.59 µM]
CC(=O)OC[C@H]1O[C@@](COC(C)=O)(O[C@H]2O[C@H](COC(C)=O)[C@@H](OC(C)=O)[C@H](OC(C)=O)[C@H]2OC(C)=O)[C@@H](OC(C)=O)[C@@H]1OC(C)=O | 2% | 22%
Cc1cccc(C)c1NC(=O)C(C)N (stereo unspecified) | 0%[17.8 µM] | -7%[17.8 µM]
CCC(COC)NC(=O)c1cnn(-c2ncc3c(n2)-c2ccccc2CC3)c1C (stereo unspecified) | -19% | 68%[activator]
S=C=NCc1ccccc1 | 10% | 14%
CCC1(c2ccccc2)CCC(=O)NC1=O (stereo unspecified) | -6% | 3%
O=c1cc(-c2ccccc2)[nH]c2ccc(F)cc12 | 4%[107 µM] | ?
COc1ccc(CN2Cc3ccccc3OC(c3ccccc3OC)C2)c(O)c1 (stereo unspecified) | -14% | ?
CN1Cc2c(ccc3c2OCO3)[C@@H]2[C@@H](O)Cc3cc4c(cc3[C@@H]21)OCO4 | -16%[17.8 µM] | ?
C1CCc2nnnn2CC1 | -20% | 13%
C[C@H]1[C@H](c2ccccc2)Oc2cc(Br)ccc2S(=O)(=O)N1Cc1ccc(Cl)cc1 | 10% | -25%
O=C(Nc1ccc(Oc2ccc3nc(NC(=O)c4ccccc4)[nH]c3c2)cc1)Nc1cc(C(F)(F)F)ccc1F | ? | ?
COC(=O)[C@@H]1CCCN1Cc1ccc2c(c1)CN(Cc1ccc3c(c1)CCCN3C)CCO2 | -2% | 11%
CCCCC[C@H](O)/C=C/C1=C(C/C=C\CCCC(=O)O)C(=O)CC1 | 3%&9% | 5%&0%
Cc1cc(NC(=O)Nc2ccc(N(C)C)cc2)c2cc(F)cc(F)c2n1 | 0%&-21% | -23%&-22%
C[C@H]1CCCC(=O)N[C@@H](c2ccccc2)[C@@H](C)CCCC(=O)N[C@@H]1c1ccccc1 | 17%[8.59 µM] | 29%[8.59 µM]
